# TRPML1 blocker: blocks the human TRPML1 channel | Q9GZU1 | TRPML1-inducible cells, Ca2+ dye fluorescence, FDSS; active compounds read low; inhibition of EC80 agonist-evoked calcium signal | activity change, negative = inhibition, % (test concentration not listed) | 390,000 compounds, 0.02% hits; in the data active means activity change below about -50%; inconclusive means about -30% to -50%; inactive means above about -30%;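 note: stimulus is agonist 54-4 at its EC80 concentration; % is set by controls: 0 for no effect and ±100 for the full control effect; compound concentration not given in the record; the text of the record puts the active cut at -80%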
# Target sequence (Q9GZU1 whole entry, looked up): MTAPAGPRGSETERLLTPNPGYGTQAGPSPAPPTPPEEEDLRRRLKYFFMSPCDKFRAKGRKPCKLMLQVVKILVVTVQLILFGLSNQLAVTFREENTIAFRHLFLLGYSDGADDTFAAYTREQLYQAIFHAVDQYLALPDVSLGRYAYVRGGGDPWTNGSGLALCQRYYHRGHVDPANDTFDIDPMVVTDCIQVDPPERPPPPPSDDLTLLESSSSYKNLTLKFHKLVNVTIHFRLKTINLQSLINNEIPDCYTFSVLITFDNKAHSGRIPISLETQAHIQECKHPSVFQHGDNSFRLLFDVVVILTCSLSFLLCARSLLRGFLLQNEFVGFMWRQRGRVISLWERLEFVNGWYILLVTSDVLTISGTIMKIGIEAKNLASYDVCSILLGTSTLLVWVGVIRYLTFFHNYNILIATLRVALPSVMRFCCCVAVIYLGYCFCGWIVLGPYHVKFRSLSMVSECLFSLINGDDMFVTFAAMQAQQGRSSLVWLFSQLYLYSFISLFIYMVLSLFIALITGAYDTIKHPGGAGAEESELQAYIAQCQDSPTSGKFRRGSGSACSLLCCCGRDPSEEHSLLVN
#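 TRPML1-DL cells, Tet-induced overnight (~16 h, 37 °C) at 1,500 cells/well, were loaded with Ca8 no-wash dye plus quencher for 45-90 min at room temperature. Compounds were pinned during FDSS kinetic reading; agonist 54-4 at EC80 (4 uM final) then added.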
# gsp antagonist: gsp mutant antagonism. gsp-mutant cells, cAMP HTRF, 30 min; control for the full effect not named in the record. 340,000 compounds, 0.4% hits. Potency, µM (top dose mostly 76.9 µM), for inactives: at the highest dose activity change, negative = inhibition, hits mostly inhibitors; active = falling curve of any shape with a large fitted effect; inconclusive = falling curve, mostly with a smaller effect; inactive = flat or rising curve; cell line not stated here;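 note: intracellular cAMP measured with PDE inhibitor Ro 20-1724 present during compound exposure; potency is the fitted concentration of half-maximal effect; % is set by controls: 0 for no effect and ±100 for the full control effect; nearly all actives have a fitted effect of over 65% in size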
#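 Cells in G418 medium, seeded 16-24 h, 37C; buffer exchange to DPBS + 1 mM CaCl2, 0.5 mM MgCl2, 0.05% BSA; cpds in DMSO + […] (300 uM stock), 30 min 37C; HTRF cAMP detection.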
# Menin-MLL FL inh: displaces fluorescein MLL peptide from human menin; Fluorescence polarization, fluorescein-MLL peptide displacement from menin; FP activity change, % at 61.4 µM; 290,000 tested, under 10 active; AID 1766; inconclusive = falling polarisation curve, or a change in total fluorescence; inactive = total fluorescence flat and polarisation flat or rising; no compound was filed as active; the % refers to the polarisation; negative = inhibition;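 note: % of control where 0% means no effect; inhibitors lower the polarisation; unlabelled MLL peptide was the positive control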
# ClpP mod: qHTS Assay for Activators of ClpP | ATP-dependent Clp protease proteolytic subunit (Bacillus subtilis (strain 168)), P80244 | purified B. subtilis ClpP, FRET peptide cleavage, 20 min | Potency, µM (doses to about 57.5 µM), without a hit: at the highest dose activity change, negative = active | 340,000 compounds, 1.9% hits; active = well fitted falling curve with a large enough effect; inconclusive = small, poorly fitted or top-dose-only effect; inactive = no such curve, though single readings can be large or run the other way; note: potency is the fitted concentration of half-maximal effect; the source files actives as falling curves though it sought activators and does not explain the sign; nearly all actives have a fitted effect of over 65% in size; many hits overshoot -100%
# Target sequence (P80244 whole entry, looked up): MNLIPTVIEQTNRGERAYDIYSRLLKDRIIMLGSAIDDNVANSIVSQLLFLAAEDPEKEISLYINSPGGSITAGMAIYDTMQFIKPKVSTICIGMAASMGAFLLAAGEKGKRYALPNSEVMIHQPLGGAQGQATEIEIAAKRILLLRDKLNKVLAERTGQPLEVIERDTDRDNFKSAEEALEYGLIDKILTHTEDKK
#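 ClpP 10 microg/mL final, pH 8 Tris/KCl buffer with BSA, glycerol, Tween-20; compound pinned in; FRET-FV substrate; RT 20 min; Ex320/Em430; ΔFRET vs ADEP 5.8 microM, DMSO, no enzyme.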
# gsp agonist: agonists of gsp mutant (McCune-Albright syndrome). gsp mutant cells, cAMP HTRF, 30 min; control for the full effect not named in the record. Potency, µM (top dose mostly 76.9 µM), for the others: top-dose activation (cAMP increase), hits mostly activators. 340,000 compounds, 0.13% hits. AID 624287; active = well fitted activation curve with a large enough effect; inconclusive = small, poorly fitted or top-dose-only effect, or another doubt; inactive = no such curve, though single readings can be large or run the other way; cell line not stated here;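 note: phosphodiesterase inhibitor Ro 20-1724 added with compounds to block cAMP breakdown; potency is the fitted concentration of half-maximal effect; nearly all actives have a fitted effect of over 60% in size; about a fifth of the inactives were tested at one dose only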
#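 Cells in DMEM/10% FBS with G418 were pretreated with compounds in DMSO plus […] (300 uM stock) for 30 min at 37C. cAMP was measured by HTRF (cAMP-d2 plus anti-cAMP antibody-K) after 30 min at room temperature.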
# TRPML1 ag: activates the human TRPML1 channel; Q9GZU1; TRPML1-expressing cells, Ca2+ dye fluorescence, FDSS; host cell line not named in the record; reference of the full effect not given here; activation, % (concentration not given with the values); 410,000 compounds, 0.12% hits; AID 624414; in the data active = activation above about 50%; inconclusive = about 30% to 50%; inactive = below about 30%; note: 0% is about no effect; the text of the record puts the active cut at 80%
#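 In this qHTS format, compounds were pin-transferred onto Ca8-dye-loaded TRPML1-DL cells induced with Tet overnight, and intracellular Ca2+ fluorescence was recorded kinetically for 110 s after a 10 s baseline. A subsequent 4uM final 54-4 (EC80) addition followed by a second 110 s read served as the antagonist phase.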
# An asterisk follows results filed as active; ? = inconclusive; . = no result given; & = joins results of further samples; [ ] = another dose, or the depositor's remark.
SMILES,TRPML1 blocker,gsp antagonist,Menin-MLL FL inh,ClpP mod,gsp agonist,TRPML1 ag
COc1ccc(NC(=O)Nc2ccc3c(c2)C(=O)N([C@H](C)CO)C[C@H](C)[C@@H](CN(C)C(=O)NC2CCCCC2)O3)cc1,2,7%,.,-1.5%,.,-0.8
CN(C(=O)COC(=O)c1ccc(=O)n(Cc2ccccc2)n1)c1ccccc1,69,0%,0.4,-1.0%,-3%,0.5
CC(C)CC1(C)NC(=O)N(CC(=O)Nc2ccc3c(c2)OCCO3)C1=O (stereo unspecified),-3,6%,.,-1.8%,-24%,0.1
COc1ccc(C2=NN(C(C)=O)C(c3cn(-c4ccccc4)nc3-c3cccs3)C2)cc1 (stereo unspecified),36,.,.,?,.,0.8
O=C(C[C@H]1C/C=C\C[C@H](Cc2ccc(F)cc2)C(=O)O[C@@H](c2ccccc2)CNC1=O)NCCO,10,3%,.,1.5%,-17%,-0.6
C/C(Cc1ccccc1)=N\NC(=O)c1cc(C(C)(C)C)[nH]n1,7,8%,1.4,.,-2%[15.4 µM],0.3
Cc1noc(C)c1S(=O)(=O)N(C)C[C@H]1OCCCC[C@@H](C)Oc2ccc(NC(=O)CCCN(C)C)cc2C(=O)N([C@H](C)CO)C[C@@H]1C,-5,.,.,0.5%,-3%,-0.6
Cc1ccccc1Cn1c(-c2cncs2)nc2ccccc21,5,-19%,-2.4,-12%,11%,-0.4
Cc1nc2ccccc2n1CCc1ccccc1,13,-1%,-1.2,.,9%[15.4 µM],0.0
CN(C(=O)COc1ccc(Cl)cc1)C1(C)CCS(=O)(=O)C1 (stereo unspecified),7,11%,.,.,3%[15.4 µM],-0.5
Cc1ccc([C@H]2C[C@@H](n3cc(C4CC4)nn3)[C@H](O)CN2C(=O)c2cccs2)cc1,-9,.,.,-2.1%,-63%[inhibitor],1.1
Nc1nonc1-n1nnc(C(=O)N/N=C/C2CCCCC2)c1-c1ccccc1,30,13%,.,0.3%,17%,0.1
CCOC(=O)N1CCN(C(=O)c2ccccc2Oc2ccccc2)CC1,67,5%,0.6,-13%,-31%,0.6
COc1cc(CN(CC2CCCO2)C(=O)c2ccc(F)cc2)cc(OC)c1OC (stereo unspecified),0,.,.,-2.7%,.,-0.8
COc1cc(OC)cc(C(=O)Nc2ccccc2-c2nnn(CC(N)=O)n2)c1,19,-25%,-0.5,.,-4%[15.4 µM],1.2
CC(Sc1nnc(-c2ccccc2)c(-c2ccccc2)n1)C(=O)Nc1ncc(Cl)cc1Cl (stereo unspecified),-4,-13%,5.8,-11%,5%,4.2
Cc1cc(Br)ccc1NC(=O)C1C2CCC(O2)C1C(=O)O (stereo unspecified),-6,10%,4.3,.,18%,-0.3
COc1ccccc1/C=C/C=N/N1CCN(Cc2ccc(Cl)cc2)CC1,21,-28%,3.0,1.8%,-20%,2.9
Nc1nc(SCc2ccc(Br)cc2)n[nH]1,-9,0%,-6.0,.,3%,1.3
Cc1ccc(CN2CCNC(=O)C2CC(=O)N(C)Cc2cnccn2)cc1 (stereo unspecified),8,4%,-6.2,-14%,6%,0.4
O=C(c1ccc(NS(=O)(=O)c2ccccc2)cc1)N1CCCCCC1,29,-11%,.,-1.2%,17%[15.4 µM],-0.3
C=CCNCCCCOc1ccc(OCC)cc1,13,7%,2.9,-0.8%,-6%,0.2
COc1cc(NS(=O)(=O)c2ccc(F)cc2)c(OC)cc1NC(C)=O,-4,-1%,2.1,0.7%,9%,-1.0
CC1=CC(c2ccccc2)n2nc(NS(=O)(=O)c3ccc(C)cc3)nc2N1 (stereo unspecified),-1,-4%,-1.4,?,-12%,-0.2
CCc1ccc(NC(=O)CN2C(=O)CCSc3ccc(S(=O)(=O)N4CCCC4)cc32)cc1,18,.,.,-1.5%,.,-0.7
Cc1nc2ccc(C(=O)Nc3cccc([N+](=O)[O-])c3)cc2s1,-3,-27%,3.0,.,14%[15.4 µM],-0.7
CCCCN1CC2([N+](=O)[O-])C=CC(=O)C([N+](=O)[O-])(C1)C2CC(=O)c1ccccc1 (stereo unspecified),14,-23%,-0.3,0.5%,3%[15.4 µM],-0.8
O=C(Nc1ccccc1N1CCN(C(=O)c2ccccc2)CC1)c1ccc(Cl)cc1,69,?,1.3,.,-2%,0.9
Cc1cccc(CSc2nn3c(=O)c(C)nnc3s2)c1,-4,8%,-3.7,0.5%,4%,0.4
CCOc1ccc(N2C(=O)C(Cl)=C(N3CCOCC3)C2=O)cc1,5,?,5.7,-0.7%,12%[15.4 µM],-0.4
COc1ccc(C2C(C(N)=O)=C(C)Nc3nc(CCCO)nn32)c(OC)c1 (stereo unspecified),-10,.,.,-0.1%,.,-0.2
Cc1ccc2c(c1)N(C(=O)CCC(=O)N1CCC(C(N)=O)CC1)CCO2,6,5%,3.2,1.8%,-23%,0.1
Cc1nnc2ccc(-c3cccc(NC(=O)c4ccc(Cl)nc4)c3)nn12,3,-14%,-0.7,.,7%,1.8
O=C(CCCC(=O)N(CC(=O)NC1CCCC1)Cc1ccccc1Cl)Nc1ccccn1,-10,1%,2.3,0.3%,7%,-0.6
CCOc1ccc(CNC(=O)CCn2c(=O)oc3ccccc32)cc1OC,-1,-1%,6.6,2.0%,8%,-1.0
Cc1ccc(P(=Nc2ccccc2)(N2CCOCC2)N2CCOCC2)o1,-8,4%,2.0,-2.3%,-12%,0.4
CC(=O)c1cc(-c2ccccc2)[nH]c1N1CCOCC1,-3,-19%,1.5,-0.7%,-10%,0.7
C#CCOCCOCCOCCNc1nc(N2CCN(C(=O)C(CCC(=O)O)n3cc(C(N)CC(C)C)nn3)CC2)nc(N2CCN(C(=O)C(Cc3cc4ccccc4[nH]3)n3cc(C(N)Cc4ccc(O)cc4)nn3)CC2)n1 (stereo unspecified),45,-2%,10,-0.3%,.,0.6
CC1Sc2ccc(S(=O)(=O)CCC(=O)Nc3ccccn3)cc2NC1=O (stereo unspecified),-6,11%,2.3,0.2%,-11%,-0.6
CC1=CC(c2ccccc2)n2nc(NC(=O)CCCC(=O)O)nc2N1 (stereo unspecified),-14,-1%,-1.8,0.0%,4%[15.4 µM],-0.5
CCCOc1ccc(N2C(=O)CC(N(Cc3ccc(OC)cc3)C(=S)Nc3ccccc3)C2=O)cc1 (stereo unspecified),-13,-19%,1.8,2.6%,-10%,0.9
CC(OC(=O)CNC(=O)c1cccc(F)c1)C(=O)NC1CCCCC1C (stereo unspecified),47,0%,.,-7.7%,-11%[15.4 µM],-0.1
O=C(c1cccnc1)N(Cc1ccccc1)C(c1ccccc1)c1nc2ccccc2[nH]1 (stereo unspecified),8,.,.,-0.2%,.,-0.1
Cc1onc(-c2ccccc2Cl)c1C(=O)OCC(=O)c1ccc2c(c1)OCCO2,-8,-10%,3.1,-12%,-26%,0.0
CC(=O)c1ccc(-c2ccc([C@H]3[C@@H]4C=CCC[C@@]4(C)C(=O)N3Cc3ccccc3)c(F)c2)cc1,94,-16%,0.0,-6.2%,.,2.0
CCOC(=O)Nc1cccc(OCC(=O)Nc2ccccc2OCC)c1,34,5%,1.7,0.8%,-24%,-0.2
Cc1ccc(N2C(=NC(=O)c3ccccc3)SC3CS(=O)(=O)CC32)cc1 (stereo unspecified),-3,-21%,.,-5.3%,-42%,-0.1
O=C(COC(=O)c1ccc(O)cc1)Nc1ccc(OC(F)F)cc1,4,-6%,0.3,.,8%,1.5
COC(=O)CN1C(=O)CSc2ccc(S(=O)(=O)Nc3ccccc3)cc21,10,.,.,-2.9%,.,-0.5
COc1ccc(Cl)cc1N(CC(=O)NCc1ccccn1)S(=O)(=O)c1ccc(C)cc1,10,.,.,0.3%,?,0.6
O=C(NC1CCCC1)C(c1cccnc1)N(Cc1ccc(F)cc1)C(=O)c1csnn1 (stereo unspecified),-16,-4%,3.1,.,?,-0.7
Cc1ccc(C)c(CN2C(=O)c3ccccc3S(=O)c3ccc(C(=O)NCc4ccco4)cc32)c1 (stereo unspecified),-2,.,.,-0.3%,.,-0.1
CCC1(CC)C(=O)C2=C3C1[C@H](C(=O)OC)CC(C(=O)OC)C[C@H]3n1c(=O)n(-c3ccccc3)c(=O)n1[C@H]2C (stereo partly specified),-23&4,-8%,2.5,-2.5%,.,-1.1&0.9
O=C(NCc1ccc(F)cc1)C(c1ccc(Cl)cc1)N(C(=O)c1csnn1)C1CC1 (stereo unspecified),5,-7%,-1.1,.,?,-0.2
CN(C)c1ccc(NC2=C([N+](=O)[O-])CS(=O)(=O)C2)cc1,-6,?,2.3,1.7%,0%,-0.3
CC1=C(C(=O)Nc2cccnc2)C(c2ccc(C(C)C)cc2)n2ncnc2N1 (stereo unspecified),-4,5%,2.5,-3.4%,-36%[inhibitor],-0.6
CC(C)(C)[C@@H]1C=C(C(=O)O)O[C@H](OCc2ccc(CO)cc2)C1,-1,6%,0.8,0.7%,?,-0.6
CC1CCCCN1c1nnc(NC(=O)Nc2ccccc2F)s1 (stereo unspecified),-14,.,.,-3.2%,.,4.1
CCCCN1C(=O)C(=O)N(CC(=O)Nc2cc(Cl)ccc2OC)C1=O,28,5%,.,-1.5%,-4%,-0.3
CC(=O)Nc1ccc(S(=O)(=O)Nc2ccc3c(c2)OCCO3)cc1,-2,1%,0.1,.,27%,0.0

# Additional structures.
SMILES,TRPML1 blocker,gsp antagonist,Menin-MLL FL inh,ClpP mod,gsp agonist,TRPML1 ag
Nc1nc(-c2ccc3c(c2)CCCC3)cs1,-9,?,1.8,-3.4%,-11%,0.2
O=C1CC(c2nnc(Cc3cccc(Cl)c3)o2)CN1c1ccccc1 (stereo unspecified),-29,.,.,-3.1%,.,-0.5
COC(=O)c1cccc(NS(=O)(=O)c2ccc(OC)c(C(=O)N3CCOCC3)c2)c1C,11,-9%,-5.5,.,6%[15.4 µM],-0.1
Cc1ccc(C(=O)NCCc2nnc3ccc(SCC(=O)N4CCCC4)nn23)cc1,-12,13%,.,-21%,?,0.5

# Record cards (already shown):
# COC(=O)c1cccc(NS(=O)(=O)c2ccc(OC)c(C(=O)N3CCOCC3)c2)c1C as listed: TRPML1 blocker = 11; gsp antagonist = -9%; Menin-MLL FL inh = -5.5; ClpP mod = .; gsp agonist = 6%[15.4 µM]; TRPML1 ag = -0.1
# Nc1nc(-c2ccc3c(c2)CCCC3)cs1 as listed: TRPML1 blocker = -9; gsp antagonist = ?; Menin-MLL FL inh = 1.8; ClpP mod = -3.4%; gsp agonist = -11%; TRPML1 ag = 0.2

# Source: PubChem BioAssay
